Screening data (PubChem)
SARS PLP yeast: inhibitors of SARS-CoV papain-like protease in yeast; Potency, µM (highest dose often 32.9 µM), for inactives: at the top dose activity, positive = growth rescue; S. cerevisiae expressing SARS-CoV PLpro, growth rescue; control for the full effect not named in the record; AID 485353; 0.19% of 330,000 active; further: 0% is about no effect; nearly all actives have a fitted effect of over 55% in size; growth read by luminescence after 48 h
RE007 growth inh: less growth of the S. pombe RE007 Vpr strain. Potency, µM (titrated, usually from 92.2 µM), inactives show at the highest dose activity change, negative = less growth. 0.21% of 360,000 active. S. pombe RE007 Vpr strain, BacTiter-Glo ATP luminescence, 24 h; control for the full effect not named in the record; active = well fitted falling curve with a large enough effect; inconclusive = small, poorly fitted or top-dose-only effect; inactive = no such curve, though single readings can be large or run the other way;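 further: on the % scale 0 is the no-effect control and ±100 the full control effect; nearly all actives have a fitted effect of over 50% in size; the assay follows cell death caused by Vpr and the record does not say whether a fall means rescue or toxicity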
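Fission yeast strain RE007, carrying one chromosomally integrated HIV-1 vpr copy, was seeded at OD 0.01 in PMG+AL medium with 23 nL pinned compound. After 24 h at 30 °C and 99% humidity, viability was read by BacTiter-Glo luminescence.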
StopGo reporter: lowers the luciferase signal of an FMDV 2A StopGo reporter; human cells with a luciferase reporter of 2A StopGo recoding; control for the full effect not named in the record; Potency, µM (doses to about 57.9 µM), for the others: at the highest dose signal change, negative = less light; 1.2% of 410,000 active; AID 1159524; active = well fitted falling curve with a large enough effect; inconclusive = small, poorly fitted or top-dose-only effect; inactive = no such curve, though single readings can be large or run the other way; tested in HEK293T cells; further: on the % scale 0 is the no-effect control and ±100 the full control effect; nearly all actives have a fitted effect of over 45% in size; luciferase light after 4 h
Lassa entry inh: Lassa virus entry inhibition. Lassa virus pseudotype entry inhibition, cell reporter; control for the full effect not named in the record. Potency, µM (top dose mostly 37.9 µM), without a hit: top-dose activity change, negative = inhibition, actives largely listed as inhibitors. 1.2% of 300,000 active; active means well fitted inhibition curve with a large enough effect; inconclusive means small, poorly fitted or top-dose-only effect, or effect the other way; inactive means flat fitted curve, though single readings scatter; tested in HEK293 cells; further: on the % scale 0 is the no-effect control and ±100 the full control effect; nearly all actives have a fitted effect of over 50% in size; luciferase read-out
Marburg entry inh: inhibitors of Marburg virus binding or cell entry; Marburg virus pseudotyped entry inhibition, cell reporter; control for the full effect not named in the record; about a third of the inactives were read at about 46 µM; Potency, µM (top dose mostly 37.8 µM), for the others: at the top dose activity change, negative = inhibition, hits mostly inhibitors; 1.8% of 300,000 active; AID 540276; active = well fitted inhibition curve with a large enough effect; inconclusive = small, poorly fitted or top-dose-only effect, or effect the other way; inactive = flat fitted curve, though single readings scatter; tested in HEK293 cells; about a fifth of its hits are not listed in these tables; further: on the % scale 0 is the no-effect control and ±100 the full control effect; luciferase read-out
Cruzain inh Det: blocks cruzain activity in presence of Triton detergent | AID 1478 | purified cruzain, Z-FR-AMC fluorescence, 0.01% Triton | P25779 | 0.43% of 200,000 active | Potency, µM, for the others: max response, negative = inhibition, hits mostly inhibitors; active means well fitted curve in the direction sought with a large enough effect; inconclusive means small, poorly fitted or top-dose-only effect, or another doubt; inactive means no such curve, though single readings can be large; an effect the other way counts as inactive or inconclusive;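 further: plate controls were neutral wells for no effect and buffer without enzyme for full effect; nearly all actives have a fitted effect of over 40% in size; top concentration of the series not given in the record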
Target sequence (P25779 123-467 limits assumed): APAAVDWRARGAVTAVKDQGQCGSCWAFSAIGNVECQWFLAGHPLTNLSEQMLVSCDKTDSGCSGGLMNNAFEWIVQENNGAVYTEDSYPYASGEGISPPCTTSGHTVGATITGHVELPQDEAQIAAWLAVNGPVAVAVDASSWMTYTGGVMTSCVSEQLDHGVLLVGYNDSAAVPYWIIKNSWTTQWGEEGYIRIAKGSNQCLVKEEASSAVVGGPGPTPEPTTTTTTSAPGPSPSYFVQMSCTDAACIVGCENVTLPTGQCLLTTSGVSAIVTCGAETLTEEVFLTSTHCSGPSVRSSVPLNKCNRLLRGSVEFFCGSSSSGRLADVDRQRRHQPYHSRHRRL
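Sodium acetate buffer (100 mM, pH 5.5) containing 5 mM DTT and 0.01% Triton X-100 hosted 1.5 nM cruzain and test compound for 15 min at room temperature. Cleavage of 2 uM Z-FR-AMC was then tracked by fluorescence.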
Cruzain inh noDet: inhibitors of Trypanosoma cruzi cruzain without detergent. 2.3% of 200,000 active. P25779. purified cruzain, Z-FR-AMC fluorescence, no detergent. Potency, µM, without a hit: max response, negative = inhibition, most hits filed as inhibitors; active means well fitted curve in the direction sought with a large enough effect; inconclusive means small, poorly fitted or top-dose-only effect, or another doubt; inactive means no such curve, though single readings can be large; an effect the other way counts as inactive or inconclusive;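 further: plate controls were enzyme without inhibitor for no effect and buffer without enzyme for full effect; nearly all actives have a fitted effect of over 40% in size; top concentration of the series not given in the record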
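Detergent-free condition (0.00005% Triton X-100) in acetate buffer pH 5.5 with DTT. 1.5 nM enzyme and compound were pre-mixed 15 min, then 2 uM Z-FR-AMC substrate added; reaction progress from fluorescence change between first and third reads (60 s).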
NS1 function inh: influenza NS1 inhibition; S. cerevisiae slowed by influenza A NS1, growth recovery by OD600; Potency, µM (doses to about 46.1 µM), for the others: at the highest dose activity, positive = more growth; 0.4% of 270,000 active; further: actives are rising curves; nearly all actives have a fitted effect of over 50% in size
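A cell-based growth assay was used: compounds that relieve NS1-induced slow growth of budding yeast raise OD600. Assay medium was yeast nitrogen base with ammonium sulphate and -URA supplement, pH 6.0, with 2% galactose.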
An asterisk follows results filed as active; ? = inconclusive; . = no result given; & = joins results of further samples; [ ] = dose if it differs, or a comment. Unless noted, the call rests on the fitted dose curve; in most records, active means well fitted rising curve with a large enough effect; inconclusive means small, poorly fitted or top-dose-only effect; inactive means no such curve, though single readings can be large or run the other way. Potency means the concentration at half of the fitted maximal effect.

Second line of a record – Cruzain inh noDet	Lassa entry inh	RE007 growth inh	StopGo reporter	Cruzain inh Det	Marburg entry inh	NS1 function inh	SARS PLP yeast
COc1ccc(NC(=O)CC2C(=O)N(C)C(=S)N2CCc2ccccc2F)cc1 (stereo unspecified)
  .	?	12%	0%	.	?	3%	0%
Cc1cc(C)c2c(=O)[nH]c(SCc3ccc([N+](=O)[O-])cc3)nc2n1
  .	-3%	-14%	-14%	.	0%	.	2%
C=CCNc1nc2ccccc2nc1NS(=O)(=O)c1ccc(OC)cc1
  .	16%[46.1 µM]	-3%	-3%	.	1%[46.1 µM]	-13%	-2%
CCOc1ccc(Nc2nc(Cl)nc(NCCO)n2)cc1
  -2%	1%	13%	-10%	-1.1%	-11%	1%	2%
CP(=O)(O)C1=CCNCC1
  5%	?	.	9%	3.2%	?	-6%	.
O=C(Nc1ccccc1)c1cc([N+](=O)[O-])ccc1NC1CCCCC1
  -10%	?	-15%	-23%	-9.3%	7%	4%	-6%
COc1ccccc1CN1CCNC(=O)C1CC(=O)NC1CCCCCC1 (stereo unspecified)
  .	4%	-7%	8%	.	-10%	16%	2%
Cc1nc(SCC(=O)NCC2CCCO2)[nH]c(=O)c1C (stereo unspecified)
  .	23%	-13%	22%	.	8%[46.1 µM]	.	3%
CC(C)CN(CC(C)C)C(=O)c1cc2c(=O)n3ccccc3nc2s1
  .	-1%	-1%	22%	.	?	1%	-1%
O=C(CSc1nnc2ccc(-c3ccncc3)nn12)Nc1ccc(F)cc1
  .	-15%	2%	-13%	.	0%	.	1%
Cc1onc(-c2c(Cl)cccc2Cl)c1C(=O)c1c[nH]c(C(=O)NC2CC2)c1
  2%	-23%	-12%	-24%	-3.6%	-11%	2%	4%
Cc1cccc(NC(=O)CCSc2ccccn2)c1
  12%	?	-25%	23%	-2.3%	?	2%	8%
COc1cc(C)nc(OCCNC(=O)COc2ccc(Cl)cc2Cl)n1
  14%	-6%	-8%	-14%	2.1%	?	-54%	-2%
CC(C)CCNC(=S)NC1CCCC1
  1%	2%	2%	20%	8.5%	3%	-38%	26%
CCN(CC)CCNC(=O)c1c(C)oc2ncn(C)c(=O)c12
  3%	14%[46.1 µM]	.	-8%	-1.2%	.	.	.
O=C(CSc1ncccc1-c1nc2ccccc2[nH]1)N1CCc2ccccc21
  ?	-2%	-3%	24%	-7.9%	?	12%	-11%
O=C(Oc1ccccc1OC(=O)N1CCOCC1)N1CCOCC1
  9%	3%	-19%	15%	-8.3%	10%[46.1 µM]	2%	3%
CCOc1ccc(NCc2cccn2-c2nnc(N3CCC(C(=O)NCCCN4C(C)CCCC4C)CC3)s2)cc1 (stereo unspecified)
  .	-21%[46.1 µM]	-1%	-16%	.	?	-17%	1%
CN(CCOC(=O)c1ccc2c(c1)OCCO2)Cc1ccccc1
  8%	-4%	-2%	32%[activator]	4.3%	7%&7%[46.1 µM]	-1%	-2%
O=C1N/C(=N/N=C/c2ccc(O)cc2)SC1Cc1ccccc1 (stereo unspecified)
  .	1.5µM*	5%	5%	.	0%	9%	-1%
CC1(C)OC2OC(C(=O)N/N=C/c3ccccc3F)C3OC(C)(C)OC3C2O1 (stereo unspecified)
  14%	5%	0%	-17%	5.1%	1%[46.1 µM]	7%	11%
CC12CCC3C(CCC4(O)CC(O)CCC34C=NO)C1(O)CCC2C1=COC(=O)C1 (stereo unspecified)
  .	0.25µM*	18%	?	.	0.18µM*	.	.
O=[N+]([O-])c1ccc2oc(-c3ccccc3)nc2c1
  .	.	?	53%[activator]	.	12%[46.1 µM]	.	0%
Cc1ccc(N=C2NC(=O)/C(=C/c3cccnc3)S2)c(C)c1
  .	?	3%	?	.	-12%	6%	-2%
O=C(OCC(F)(F)F)c1cccc(COc2ccc3ccccc3c2)c1
  3%	?	0%	?	-2.4%	1.3µM*	-2%	7%
O=C(NCCc1ccccc1)C(=O)Nc1nccs1
  ?	8%	8%	16%	4.1%	?	5%	-9%
Cc1cccc(-c2nn(-c3ccccc3)cc2C(=O)N2CCN(C3CCS(=O)(=O)C3)CC2)c1 (stereo unspecified)
  .	1%	15%	-6%	.	8%	.	3%
CCOc1ccc(NC(=O)Nc2cccc(C(=O)O)c2)cc1
  .	?	?	1.6µM*	.	.	.	-6%
O=C(Nc1ccc2c(c1)OCCO2)c1ccc(NC(=O)C2CCCO2)cc1 (stereo unspecified)
  -3%	?	2%	1%	-0.8%	-9%&-9%	-12%	1%
c1ccc(CNc2ncnc3sc4c(c23)CCCC4)nc1
  .	7%	2%	?	.	-17%	.	-1%
C=CCN(c1ccc(C(=O)N2CCCC2)cc1)S(C)(=O)=O
  0%	?	10%	29%	-0.6%	16%	-2%	3%
COc1ccc2cc(CNc3ccc(C)cc3)c(=O)n(CC(=O)Nc3ccc(OC)c(Cl)c3)c2c1
  ?	-6%[46.1 µM]	.	-10%	-1.9%	.	.	.
CC(=O)c1ccc(N=Nc2ccc(C)cc2)cc1
  .	?	-17%	?	.	?	.	-2%
C=CCN1c2ccccc2[C@]23C[C@@H](C(=O)OC)N(C(=O)NCCC)C2=NC(C(=O)OC)=C(C(=O)OC)[C@H]13
  .	.	8%	-9%	.	.	11%	-1%
Nc1nc(CSc2ncccn2)nc(Nc2ccccc2)n1
  4%	9%	0%	.	5.3%	-2%	-4%	3%
Cc1ccc(NC(=O)COC(=O)Cn2cnc3c2c(=O)n(C)c(=O)n3C)cc1F
  .	5%	11%	15%	.	5%	.	0%
COc1ccc(CNC(=O)c2cc3c(=O)n(C)c4ccccc4c3n2C)cc1
  -6%	-10%[46.1 µM]	.	-2%	0.6%	2%[46.1 µM]	.	.
C/C(=N\NC(=O)COc1ccccc1F)c1cc2ccccc2o1
  ?	-16%	-9%	20%	-5.0%	-7%	-9%	-18%
COc1ccccc1Nc1nc(NCCC(C)C)nc(N)c1[N+](=O)[O-]
  .	.	27%	-36%	.	.	4%	0%
COc1ccc(Nc2nnc(SC(C(=O)Nc3cc(C)ccc3C)c3ccccc3)s2)cc1 (stereo unspecified)
  .	?	3%	-7%	.	?	.	0%
COC(=O)N/N=C/c1cc(OC)c(O)c([N+](=O)[O-])c1
  -2%	2%	2%	-24%	-8.3%	-18%	16%	16%
O=C(C1CC1)N1CCc2cc(Br)cc(S(=O)(=O)N3CCN(c4ccccn4)CC3)c21
  -14%	?	-2%	13%	0.4%	0%&0%	-42%	-11%
CC(=O)C1=C(NC(=O)c2ccc(F)cc2)CC2C1C2(C)C (stereo unspecified)
  -2%	31%	11%	-2%	-4.4%	-3%	-5%	-5%
Cc1cc(C)nc(SCC(=O)c2ccc(F)cc2)n1
  .	.	3%	36%[activator]	.	.	12%	-14%
CC(C)C(=O)NC(NC(=S)NC1CCS(=O)(=O)C1)C(Cl)(Cl)Cl (stereo unspecified)
  5%	7%	-9%	.	1.2%	?	4%	-12%
COc1ccc(NC(=O)C2=C(C)Nc3nc(SCc4ccccc4C)nn3C2c2cc(OC)c(O)c(OC)c2)cc1 (stereo unspecified)
  10µM*	-12%[46.1 µM]	.	-2%	-4.5%	14%[46.1 µM]	.	.
CN1CCCCCC1=NC1=C(C#N)CCCC1
  -5%	17%	15%	0%	5.0%	-21%	0%	6%
CCOC(=O)C(NC(=O)c1ccccc1)(Nc1cccc(C)n1)C(F)(F)F (stereo unspecified)
  .	0%	54%	25%	.	-20%[46.1 µM]	.	3%
CCOC(=O)c1c(NC(=O)C2CCCCC2)sc2c1CCN(C(C)C)C2
  .	.	-9%	0%	.	.	-8%	-6%
Cc1ccccc1Nc1cc(C(=O)NCCc2ccc(Cl)cc2)c2ccccc2n1
  ?	12%[46.1 µM]	.	-28%	-9.6%	?	.	.
CC1CN(C(=O)COC(=O)c2cccs2)CC(C)O1 (stereo unspecified)
  1%	2%	6%	-6%	0.7%	?	6%	-3%
Cn1c(Br)nc2c1c(=O)n(CC(O)COc1ccccc1)c(=O)n2C (stereo unspecified)
  -7%	8%	6%	-20%	1.1%	?	-18%	0%
N#CCc1nn2c3c(cnc2c1C#N)C(=O)CCC3
  .	6%	19%	1%	.	11%[46.1 µM]	13%	0%
CCOC(=O)c1cccc(NC(=O)C2CCCN(S(=O)(=O)c3ccc4c(c3)oc(=O)n4C)C2)c1 (stereo unspecified)
  23%	-1%[46.1 µM]	.	?	-5.1%	13%[46.1 µM]	.	.
O=C(c1nnc(Cc2ccc(Cl)cc2)o1)N1CCOCC1
  -6%	16%	9%	7%	0.8%	-3%	-2%	2%

Rewritten in CSV form: part of the list above
Compound,Cruzain inh noDet,Lassa entry inh,RE007 growth inh,StopGo reporter,Cruzain inh Det,Marburg entry inh,NS1 function inh,SARS PLP yeast
COC(=O)N/N=C/c1cc(OC)c(O)c([N+](=O)[O-])c1,-2%,2%,2%,-24%,-8.3%,-18%,16%,16%
O=C(C1CC1)N1CCc2cc(Br)cc(S(=O)(=O)N3CCN(c4ccccn4)CC3)c21,-14%,?,-2%,13%,0.4%,0%&0%,-42%,-11%
CC(=O)C1=C(NC(=O)c2ccc(F)cc2)CC2C1C2(C)C (stereo unspecified),-2%,31%,11%,-2%,-4.4%,-3%,-5%,-5%
Cc1cc(C)nc(SCC(=O)c2ccc(F)cc2)n1,.,.,3%,36%[activator],.,.,12%,-14%
CC(C)C(=O)NC(NC(=S)NC1CCS(=O)(=O)C1)C(Cl)(Cl)Cl (stereo unspecified),5%,7%,-9%,.,1.2%,?,4%,-12%
